# HNF4A DNA FP: change in binding of human HNF4 alpha to DNA; AID 1224865; 0.3% of 360,000 active; activity change, % at 10 µM; P41235; HNF4a-FITC DNA binding, fluorescence polarization, 1 h; in the data active means activity change above about 30%, passing the limit was not always enough;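 further: controls were the assay level and a saturating level of protein; the project sought stronger binding though the title names inhibitors; some compounds called inactive have numbers as strong as hits; positive values seem to mean higher polarization but the record does not say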
# E coli growth: E. coli growth inhibition; OD600 absorbance (concentration not given with the values); 0.21% of 330,000 active; AID 1053175; Escherichia coli growth, OD600, 23 h; hits give low values;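 active means OD600 absorbance below the run mean of sample wells minus 3.6 SD, in any replicate, cut at about 0.56 in these data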;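 further: stock transfer was 300 nL into about 60 µL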
# LANA-H2B inh: blocks KSHV LANA binding to histone H2A/H2B | cell-free LANA-H2A/H2B peptide, fluorescence polarization | inhibition, % (no concentration beside the values) | 0.6% of 320,000 active; in the data active means inhibition mostly above about 10%, no sharp cut-off; inactive means mostly below about 6.7%;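 further: stock transfer was 7.5 nL into about 10 µL; 0% = median of vehicle wells and 100% = median of positive control wells; one replicate is shown; the record names a cut of 25% in any replicate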
# B2AR ag: human beta-2 adrenergic receptor agonism by FAP | 0.43% of 340,000 active | AID 504454 | response, % (no concentration beside the values) | Am2.2-beta2AR cells, FAP receptor internalization, flow cytometry; reference of the scale not given here;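 active means response above a set limit, near 3 SD of response in nonfluorescent compounds, cut at about 42% in these data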;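 further: stock transfer was 100 nL into about 11 µL; a reference agonist was the positive control; negative values mostly stem from fluorescent compounds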
# Target sequence (P07550 whole entry, looked up): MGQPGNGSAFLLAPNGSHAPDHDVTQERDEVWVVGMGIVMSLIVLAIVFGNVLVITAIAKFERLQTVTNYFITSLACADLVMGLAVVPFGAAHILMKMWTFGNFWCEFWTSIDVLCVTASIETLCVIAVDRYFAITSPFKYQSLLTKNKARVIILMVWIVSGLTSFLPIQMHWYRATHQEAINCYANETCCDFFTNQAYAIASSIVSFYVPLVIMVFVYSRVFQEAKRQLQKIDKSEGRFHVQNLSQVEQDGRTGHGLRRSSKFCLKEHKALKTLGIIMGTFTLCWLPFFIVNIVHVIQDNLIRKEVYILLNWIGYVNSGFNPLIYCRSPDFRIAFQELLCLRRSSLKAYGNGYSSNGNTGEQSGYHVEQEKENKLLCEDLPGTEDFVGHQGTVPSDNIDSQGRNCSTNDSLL
# ALR inh: human ALR oxidase inhibition via reduced H2O2; purified ALR, DTT oxidation, H2O2 HRP-luminol luminescence; inhibition, % (concentration not given with the values); 3.8% of 290,000 active;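 active means mean and each replicate at 75% or more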;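 further: stock transfer was 7.5 nL into about 7.5 µL; 0% = neutral wells and 100% = wells with inactivated enzyme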
# FGF22 binding: shifts melting point of recombinant human FGF22 | Q9HCT0 | recombinant FGF22 thermal shift, SYPRO orange fluorescence; percent of sucrose octasulfate shift, DMSO zero | calls only at 9.99 µM | 1.5% of 340,000 active | AID 651658;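 active means melting point raised past a set limit in the mean and every replicate; three in four hits are not shown here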
# Target sequence (Q9HCT0 whole entry, looked up): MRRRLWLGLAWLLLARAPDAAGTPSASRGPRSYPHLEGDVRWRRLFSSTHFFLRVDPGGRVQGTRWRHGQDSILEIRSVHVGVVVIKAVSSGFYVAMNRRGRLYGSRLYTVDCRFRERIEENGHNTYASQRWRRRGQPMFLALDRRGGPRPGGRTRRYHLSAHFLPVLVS
# UCH37 inh: inhibitors of human deubiquitinating enzyme UCH37; AID 588478; purified proteasome/UCH37, Ub-AMC cleavage fluorescence; inhibition, % (test concentration not listed); 0.33% of 330,000 active; Q9Y5K5;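 active means mean of two replicates above 20%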;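 further: 0% = compound-free wells with enzyme and 100% = wells lacking proteasome; stock transfer was 100 nL into about 20 µL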
# Target sequence (Q9Y5K5 whole entry, looked up): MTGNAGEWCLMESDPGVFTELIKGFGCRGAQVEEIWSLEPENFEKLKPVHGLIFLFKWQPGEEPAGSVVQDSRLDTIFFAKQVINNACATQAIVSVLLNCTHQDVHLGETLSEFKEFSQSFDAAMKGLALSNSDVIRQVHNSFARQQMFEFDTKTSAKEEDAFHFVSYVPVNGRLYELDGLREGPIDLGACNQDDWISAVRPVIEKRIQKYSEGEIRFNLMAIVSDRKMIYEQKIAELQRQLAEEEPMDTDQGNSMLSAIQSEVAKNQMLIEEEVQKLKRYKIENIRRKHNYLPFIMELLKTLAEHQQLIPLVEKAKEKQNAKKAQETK
#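 Signal – fluorescence, ex 355 nm, em 460 nm · System – Proteasome-bound UCH37 · Input – 0.15 nM proteasome as dispensed · Timing – 30 min preincubation with enzyme, 25 min cleavage at room temperature · Read-out basis – percent inhibition of cleavage signal versus uninhibited and no-proteasome wells · Medium – Tris-HCl pH 7.4 with ATP-MgCl2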
# Numbers without * were called inactive; i = inactive; nt = not tested or not shown; + = active, no number. Some of the compounds tested; rates above refer to the full screens.
SMILES,HNF4A DNA FP,E coli growth,LANA-H2B inh,B2AR ag,ALR inh,FGF22 binding,UCH37 inh
CC(C)c1ccc(NC2CCCN(C(=O)CCN3CCOCC3)C2)cc1 (stereo unspecified),0.1,0.68,1.6,5,55,i,1.8
COc1ccc(-n2c(Cc3cccn3C)nnc2SCC(=O)Nc2ccc3c(c2)OCO3)cc1,6.1,0.76,-1.8,-2,25,i,4.4
CC/C(=N\NC(=O)C1CC1)c1cccc(Cl)c1,-2.8,nt,3.5,-22,10,i,nt
CC(C)[C@H](NC(=O)c1ccccc1F)C(=O)NCc1ccc(S(N)(=O)=O)cc1,-1.3,0.65,2.5,1,1,i,1.4
COc1ccc(CNC(=O)COC(=O)/C=C/c2ccco2)cc1,2.6,0.69,-4.3,2,7,i,5.6
Cc1[nH]c2ccc(F)cc2c1CCN(Cc1ccncc1)C(=S)Nc1cccc(F)c1,0.6,0.75,5.1,2,5,i,2.3
COc1ccc(S(=O)(=O)c2ccc(O)cc2)cc1,-0.5,0.66,-0.7,-2,nt,nt,0.4
Cc1ccc(S(=O)(=O)CC(c2ccccc2)N2CCCCC2)cc1 (stereo unspecified),-0.2,0.72,8.5,-1,-6,i,-0.2
CN(Cc1ccco1)c1ncnc2ccc(-c3ccc4c(ccn4C)c3)cc12,-1.2,nt,5.1,22,-3,i,nt
CC[C@]12c3[nH]c4ccc(Cl)cc4c3CCN1C(=O)[C@@H](CC(=O)NCc1ccc(OC)c(OC)c1)C[C@@H]2C(=O)N1CCN(C(=O)c2ccco2)CC1,-0.7,0.71,nt,1,nt,i,0.3
CCCCN(C(=S)Nc1cccc(SC)c1)C1CCN(C(C)=O)CC1,0.3,0.7,3.5,4,-5,i,2.8
CC(C)N(C(=O)COc1ccc(Br)cc1Cl)C(C)C,-1.6,0.67,2.8,-18,nt,nt,2.5
COc1ccc2[nH]c(=O)c(CN(C(C)=O)c3ccc(C)c(C)c3)cc2c1,0.4,0.66,-1.2,1,-11,i,-39
O=C(Oc1ccccc1)N1CCN(C(=O)c2ccco2)CC1,0.1,0.63,-4.1,2,-10,i,1.2
COc1cc(NC(=O)CN(c2ccc(C)cc2)S(=O)(=O)c2c(C)nn(C)c2C)cc(OC)c1,1.2,0.68,-2.3,8,-12,nt,3.1
CCOc1ccc(/C=N/NC(=O)C(C)N(c2ccc(OC)cc2)S(C)(=O)=O)cc1 (stereo unspecified),1.4,nt,-0.1,2,-8,nt,nt
CC(C)c1cc(NCCOCCO)n2c(nc3ccccc32)c1C#N,0.5,0.64,-6.0,5,10,i,i
Cc1ccc(S(=O)(=O)NCC(=O)OCC(=O)NC(=O)NC2CCCC2)cc1,-1.7,0.65,0.1,2,-3,i,3.4
Clc1ccc(NCc2nnc3n2CCCCC3)cc1,0.7,0.72,2.1,-2,60,nt,2.5
CCCCNC(=O)CSc1nc2cc(OC)c(OC)cc2c(=O)n1Cc1ccc(OC)cc1,-0.4,0.72,-2.7,3,-21,nt,1.0
Cc1cc(C)cc(-n2c(O)c(C=NC3CCS(=O)(=O)C3)c3ccccc3c2=O)c1 (stereo unspecified),-2.3,0.7,4.1,-15,-9,nt,7.4
COc1cc(NC(=O)c2cccnc2)c(Cl)cc1NC(=O)c1ccc(Cl)cc1,0.6,0.72,3.3,-7,-11,i,-89
O=C(Nc1ccc2c(c1)OCO2)c1ccc(NC2CC2)c([N+](=O)[O-])c1,-2.3,0.68,-0.1,6,nt,+,5.4
O=C(CSc1nnc(C2COc3ccccc3O2)o1)N1CCOCC1 (stereo unspecified),3.8,0.78,-7.5,5,-13,nt,6.6
CCOc1ccccc1NC(=O)c1cc(S(=O)(=O)N2CCOCC2)ccc1C,1.3,0.73,-4.7,3,-4,i,1.1

# 6 entries already listed, sorted by the number in LANA-H2B inh, low to high.
molecule,LANA-H2B inh
COc1cc(NC(=O)CN(c2ccc(C)cc2)S(=O)(=O)c2c(C)nn(C)c2C)cc(OC)c1,-2.3
COc1ccc2[nH]c(=O)c(CN(C(C)=O)c3ccc(C)c(C)c3)cc2c1,-1.2
CC(C)c1ccc(NC2CCCN(C(=O)CCN3CCOCC3)C2)cc1 (stereo unspecified),1.6
Clc1ccc(NCc2nnc3n2CCCCC3)cc1,2.1
CCCCN(C(=S)Nc1cccc(SC)c1)C1CCN(C(C)=O)CC1,3.5
Cc1ccc(S(=O)(=O)CC(c2ccccc2)N2CCCCC2)cc1 (stereo unspecified),8.5

# New compounds follow
SMILES,HNF4A DNA FP,E coli growth,LANA-H2B inh,B2AR ag,ALR inh,FGF22 binding,UCH37 inh
CCc1ccc(Nc2cc(C(=O)NCCCN3CCOCC3)c3ccccc3n2)cc1,-0.8,0.74,-1.2,11,-4,i,-2.7
Cc1ccc(NC(=O)CN2CCc3cc4c(cc3C2)OCCCO4)cc1,-0.9,0.7,3.5,5,0,i,1.3
CN(C)C(=O)c1cc(S(=O)(=O)N(C)C)c(Cl)cc1N1CCCC1,1.8,0.7,-4.6,-1,-3,nt,3.4
O=C(c1cc(=O)[nH]c2ccccc12)N1CCN(Cc2ccc3c(c2)OCO3)CC1,1.9,0.69,nt,-1,nt,i,-6.3
Cc1ccccc1C(=O)NCC(=O)NCC1(N2CCOCC2)CCCCC1,-0.2,0.7,0.7,-5,-5,i,0.2
CCCC1CCC(c2nc(-c3cccnc3)no2)CC1 (stereo unspecified),-0.2,0.66,3.0,-10,1,nt,-2.1
Nc1ccnc(=O)[nH]1,1.0,0.68,3.8,8,-13,i,3.4
C/C(=N\N=C(N)N)c1cc(Cl)ccc1Cl,3.4,nt,0.1,2,-27,i,nt
COCC(=O)Nc1ccc([N+](=O)[O-])cc1OC,4.7,0.7,-3.0,-13,-6,i,6.2
NS(=O)(=O)c1ccc(NC(=S)NC2CC2)cc1,-1.1,0.72,-0.6,-7,nt,i,3.0
O=C(Nc1ccc2c(c1)OCO2)c1cc(-c2ccncc2)nc2ccccc12,2.7,0.7,-2.5,4,-9,i,3.5
CCOC(=O)c1cnn2c(C)cc(-c3ccc(F)cc3)nc12,-2.0,0.68,-0.3,-9,-1,nt,-278
CCOC(=O)c1cncc(O)c1,1.6,0.69,-5.1,-1,-6,i,-3.9
CCOc1ccccc1OCCCOc1ccc(C)cc1Br,0.0,0.72,2.7,-4,0,nt,2.9
O=C(CSCCc1ccccn1)Nc1cccnc1,0.1,0.72,-5.0,4,-7,nt,23*
O=C(NCc1ccncc1)C(=O)Nc1ccc2c(c1)OCO2,1.7,0.69,2.0,-1,-15,i,0.4
Cn1c(NC(=O)c2cc(Br)ccc2Cl)cc(=O)n(C)c1=O,-2.4,0.68,0.9,-3,-9,i,3.7
CN(CC(=O)Nc1ccccc1Cl)C(=O)COC(=O)CCN1C(=O)C2CC=CCC2C1=O (stereo unspecified),0.1,0.69,2.1,-7,-6,i,3.6
Nc1nc(SCC(=O)Nc2cc(Cl)ccc2Cl)n[nH]1,12,0.63,-1.8,0,-2,i,0.6
CCCCn1c(-c2csc(CC)c2)n[nH]c1=S,0.7,0.72,4.1,10,nt,nt,3.9
O=C(NC1CC1)c1cc(-c2ccco2)nc2ccccc12,-56,0.71,nt,-8,nt,nt,i
CCCC1=C(C(=O)OCC)C(c2ccco2)C(C#N)=C(N)O1 (stereo unspecified),2.0,0.71,4.6,-4,3,i,0.5
Cn1cnnc1SCC(=O)N/N=C/c1ccc(OCC(N)=O)cc1,3.2,nt,-4.2,-2,nt,i,nt
Cc1cc(C)c(OCC(=O)Nc2nnc(-c3ccco3)o2)c(C)c1,-0.2,0.69,-1.0,0,nt,i,0.8
COC(=O)[C@@]12CCCCN1[C@H](c1ccc(-c3ccc(F)cc3)cc1)[C@H]1C(=O)N(C)C(=O)[C@H]12,1.5,nt,-1.0,-4,-10,i,1.3

# Further structures:
SMILES,HNF4A DNA FP,E coli growth,LANA-H2B inh,B2AR ag,ALR inh,FGF22 binding,UCH37 inh
Cc1ccccc1NC(=O)c1c(C)[nH]c(=S)c(C#N)c1-c1ccc(Cl)cc1,0.7,0.72,-4.3,0,10,i,7.4
CSc1ccc(CN(C)CC(=O)Nc2ccc(C)cc2Br)cc1,0.3,0.68,3.6,0,1,nt,-18
CCOc1ccc(S(=O)(=O)N2CCC(C(=O)Nc3cccc(NC(C)=O)c3)CC2)cc1,1.9,0.65,-3.1,11,-5,i,-2.6
CN(C)S(=O)(=O)c1cc(NC(=O)C2=COCCO2)ccc1Cl,1.9,0.65,1.8,-11,-10,i,-0.4
COc1cccc(C(=O)Nc2ccc(Oc3cccc(C(F)(F)F)c3)nc2)c1,0.6,0.7,0.9,2,-5,i,9.4
COc1ccc(Br)c2oc(S)cc(=O)c12,0.6,0.68,1.8,-1,60,i,4.0
Cc1cc(S(=O)(=O)NCc2ccccc2)ccc1OCC(=O)Nc1cccc([N+](=O)[O-])c1,0.9,nt,2.4,2,1,i,nt
COC(=O)c1nc(N)sc1-c1ccc(OC)cc1,-1.8,0.72,3.7,18,-5,nt,-6.5
C=CCn1c(Oc2ccccc2)nc2c1c(=O)n(C)c(=O)n2C,-0.6,0.74,-6.5,-4,-8,i,2.7
CCOCC(=O)Nc1cc(C(=O)OC)cc(C(=O)OC)c1,1.8,0.69,7.5,6,0,i,0.4
O=C(NNC(=S)NC(=O)c1ccco1)c1ccc(F)cc1,1.6,nt,1.8,-3,97*,+,nt
Cc1cccnc1NC(=O)c1ccccc1-c1ccccc1C(=O)Nc1ncccc1C,-2.2,0.67,-5.6,1,21,nt,0.7
O=C(COc1ccc(Br)cc1Cl)NNC(=O)c1ccccc1,-2.6,0.69,nt,-19,nt,i,4.0
Cc1cc(C(=O)NC(C)Cc2ccccc2)cc(C)c1[N+](=O)[O-] (stereo unspecified),3.3,0.66,-1.6,-2,0,i,3.1
COC(=O)c1c(NC(=O)CSc2nnc(C)c(=O)[nH]2)sc(C)c1C,-0.6,0.7,-1.8,7,44,nt,3.4
Cc1cc(C(=O)CCC(=O)N2CCN(S(=O)(=O)c3ccccc3)CC2)c(C)s1,-2.7,0.69,0.8,4,nt,i,-2.1
COc1cc2ccccc2cc1C(=O)Nc1ccc(N2CCOCC2)cc1,-0.6,0.69,5.1,4,-1,i,-34
CC(C)(C)c1cc2cccnc2n1Cc1cccc(F)c1,2.8,0.72,-3.8,0,5,nt,-6.8
COc1ccc(-n2ccc3ccccc32)cc1,1.4,0.67,-1.1,3,16,i,-2.1
O=S(=O)(Nc1nccs1)c1cc(Cl)ccc1Cl,1.6,0.71,0.7,5,8,nt,-1.2
CSCCC(NC(=O)c1ccco1)C(=O)OCC(=O)Nc1ncc(Cl)c(C)c1Cl (stereo unspecified),-2.4,0.77,-5.2,-8,-4,nt,0.4
CCOCCn1c(CN(Cc2ccccc2)Cc2ccccc2)nc2c1c(=O)[nH]c(=O)n2C,-1.7,0.65,12,-7,2,i,3.5
CCn1c(SCC(=O)N2CCc3ccccc32)nc2c(c1=O)SC(C)C2 (stereo unspecified),-0.4,0.78,-0.8,nt,18,nt,6.8
CSC1=NC(C)N2C(SC)=NC(C)N12 (stereo unspecified),-2.8,0.63,1.5,-2,1,i,-0.9
Cc1cc(NC(=O)COC(=O)c2ccc(S(=O)(=O)N3CCCc4ccccc43)cc2)no1,0.4,0.67,3.5,-2,-9,nt,1.3
O=C(COC(=O)CSCC(=O)N1CCCCC1)Nc1ccc(Cl)cc1,-3.0,0.74,-10,5,89*,nt,3.3
O=C(NCCCN1CCN(CCCNC(=O)c2cccc(Cl)c2)CC1)c1cccc(Cl)c1,0.3,nt,4.1,-3,-6,nt,nt
COCC(C)n1c(SCc2ccc(C(=O)OC)o2)nc2ccccc2c1=O (stereo unspecified),0.5,0.69,0.6,-5,-6,i,4.0
NS(=O)(=O)c1ccc(CCNCc2cccs2)cc1,3.9,0.68,1.8,-3,nt,i,1.8

# Some values from above.
# ALR inh, CCCC1CCC(c2nc(-c3cccnc3)no2)CC1 (stereo unspecified) = 1
# B2AR ag, CCCCN(C(=S)Nc1cccc(SC)c1)C1CCN(C(C)=O)CC1 = 4

# Screening results from PubChem BioAssay.
